# rRNA inh HTS: inhibitors of bacterial rRNA selective over humanized ribosomes | E. coli WT GFP vs humanized-ribosome RFP mutants, fluorescence, 24 h; hits give low values; DMSO median 0, no signal -100 | GFP signal change (wild-type ribosome), % (test concentration not listed) | 350,000 tested, 1.6% active;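 active means significant combined selectivity score with lowered wild-type GFP, culture density cut under 30%, mutant RFP and density less affected; inactive means any of these conditions unmet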; further: one replicate is shown; some compounds called inactive have numbers as strong as hits
# Calb FLC: affects C. albicans growth with fluconazole. C. albicans CaCi-2 (fluconazole-resistant clinical isolate) + fluconazole, Alamar Blue growth, 48 h. AID 1979. growth inhibition, % (test concentration not listed). 300,000 tested, 0.57% active;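 active means most replicates above 75%; inconclusive means exactly half above 75%; inactive means most below 75%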;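 further: all wells also contain fluconazole at 8 µg/ml as a sub-toxic cotreatment; 0% = median of DMSO wells and 100% = median of geldanamycin control wells; wells of about 8 µL received 7.5 nL stock; the first replicate is given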
# A1 inh: inhibitors of the anti-apoptotic protein A1, read as caspase activation; 330,000 tested, 0.066% active; AID 2462; MEF A1-2A-BIM cells, Caspase-Glo 3/7 luminescence, 3 h; percent of clofoctol response, vehicle zero; caspase activation, % (test concentration not listed);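 active means over half of replicate activation scores above 10%, or exactly half above 10 with the replicate mean above 10; inconclusive means replicate mean below 10 yet half the replicates above 10; inactive means over half of replicates below 10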;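 further: wells of about 30 µL received 50 nL stock; many hits fall short of the cut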
# LANA-H2A inh: blocks KSHV LANA binding to histone H2A/H2B. Q9QR71. cell-free LANA-H2A/H2B peptide, fluorescence polarization. inhibition, % (no concentration beside the values). 320,000 tested, 0.6% active; in the data active means inhibition mostly above about 10%, no sharp cut-off; inactive means mostly below about 6.7%;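 further: stock transfer was 7.5 nL into about 10 µL; 0% = median of vehicle wells and 100% = median of positive control wells; one replicate is shown; the record names a cut of 25% in any replicate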
# Beta2AR agonist: agonists of human beta-2 adrenergic receptor inducing internalization. P07550. Am2.2-beta2AR cells, FAP receptor internalization, flow cytometry; reference of the scale not given here. response, % (concentration not given with the values). 340,000 tested, 0.43% active;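 active means response above a set limit, near 3 SD of response in nonfluorescent compounds, cut at about 42% in these data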;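 further: stock transfer was 100 nL into about 11 µL; a reference agonist was the positive control; negative values mostly stem from fluorescent compounds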
# Target sequence (P07550 whole entry, looked up): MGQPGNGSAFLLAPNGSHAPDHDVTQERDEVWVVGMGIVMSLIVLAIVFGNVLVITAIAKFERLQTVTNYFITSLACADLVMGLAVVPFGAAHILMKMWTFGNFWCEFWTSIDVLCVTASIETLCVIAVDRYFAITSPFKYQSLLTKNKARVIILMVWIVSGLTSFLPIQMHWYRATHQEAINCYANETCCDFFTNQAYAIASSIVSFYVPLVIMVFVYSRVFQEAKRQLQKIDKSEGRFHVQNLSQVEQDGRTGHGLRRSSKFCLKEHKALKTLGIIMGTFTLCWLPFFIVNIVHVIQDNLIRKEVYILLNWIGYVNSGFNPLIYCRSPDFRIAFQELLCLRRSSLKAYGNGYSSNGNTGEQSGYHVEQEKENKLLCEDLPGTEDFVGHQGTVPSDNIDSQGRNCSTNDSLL
# Beta apoptosis: blocks beta cell apoptosis; INS-1E cytokine-induced death, ATP luminescence, 48 h; percent of positive-control rescue, neutral wells zero; protection from apoptosis, % (test concentration not listed); 300,000 tested, 0.8% active; AID 435005;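 active means all replicates at 75% or more, or half of them and the mean; inconclusive means half reach 75% but not the mean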;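 further: 0% = cytokine-treated negative control wells and 100% = positive control rescue; higher means more ATP so stronger rescue from cytokine killing; wells of about 40 µL received 100 nL stock; the first replicate is given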
# T cruzi inh: blocks replication of Trypanosoma cruzi; inhibition, % (concentration not given with the values); T. cruzi beta-gal in NIH3T3, luminescence, 90 h; 300,000 tested, 1.4% active;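 active means mean inhibition across valid replicates above about 55%, limit read from the data; inconclusive means mean below that limit but half or more replicates reach it; inactive means mean below it, under half of replicates reach it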;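 further: signal also drops with host cell toxicity which is not excluded here; 0% = plate median of DMSO wells and 100% = zero luminescence signal; higher percent means less beta-gal luminescence so fewer parasites; stock transfer was 50 nL into about 50 µL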
# ALR H2O2 inh: inhibitors of human sulfhydryl oxidase ALR. purified ALR, DTT oxidation, H2O2 HRP-luminol luminescence. inhibition, % (concentration not given with the values). 290,000 tested, 3.8% active;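 active means mean and each replicate at 75% or more; inconclusive means only one of the two met; inactive means neither met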;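 further: stock transfer was 7.5 nL into about 7.5 µL; 0% = neutral wells and 100% = wells with inactivated enzyme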
# Target sequence (P55789 whole entry, looked up): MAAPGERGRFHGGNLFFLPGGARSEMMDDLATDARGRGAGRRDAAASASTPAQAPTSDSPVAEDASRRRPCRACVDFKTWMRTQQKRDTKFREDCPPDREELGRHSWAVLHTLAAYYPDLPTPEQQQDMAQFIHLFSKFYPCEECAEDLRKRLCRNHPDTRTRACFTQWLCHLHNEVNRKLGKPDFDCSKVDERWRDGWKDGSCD
# rRNA inh HTS OD600: recorded beside rRNA inh HTS, whose call it bears; OD600 change, %; measured here: OD600 growth;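 optical density of the mix in the first replicate; 0 = DMSO median and -100 = no signal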
# rRNA inh HTS RFP: also measured in rRNA inh HTS; calls as there; RFP signal change, %; measured here: RFP humanized mutant strains;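 first replicate; 0 = DMSO median and -100 = no signal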
# The depositor's hits bear a star; u = inconclusive; x = no result given.
SMILES,rRNA inh HTS,rRNA inh HTS OD600,rRNA inh HTS RFP,Calb FLC,A1 inh,LANA-H2A inh,Beta2AR agonist,Beta apoptosis,T cruzi inh,ALR H2O2 inh
CCn1cc(/C=C(\NC(=O)c2cc(OC)c(OC)c(OC)c2)C(=O)N2CCN(C)CC2)c2ccccc21,5,11,11,40,-0.2,7.8,-6,3,-6,40
CCOc1ccc2cc(C#N)c(SCC(=O)N3CCC(C)CC3)nc2c1,x,x,x,-2,-0.3,6.3,-8,1,32,-20
O=c1c(Cc2ccccc2O)c(O)nc2n1CCCS2,0,2,0.6,-2,0.0,1.1,5,-5,-8,4
CC(=O)OC(C)CS(=O)(=O)c1ccccc1 (centres undefined),19,12,0.7,4,2.8,1.1,-1,-9,-10,x
COc1cc(/C=C/C(=O)OCC(=O)NCCc2ccccc2)ccc1OC(F)F,-8,1,-0.6,-1,0.3,3.0,-2,0,-6,-2
Cc1nc2c(C#N)c(C)[nH]n2c(=O)c1Cc1ccccc1,-19,-25,-5.3,4,0.7,0.4,-1,-4,3,39
CCN1C(=O)c2cccc3c(NC(=O)c4cccc(N5C(=O)CCC5=O)c4)ccc1c23,x,x,x,6,-0.2,-3.9,3,-8,-1,-11
CCOC(=O)N1CCN(C(=O)c2ccc3c(=O)n(CCc4ccccc4)c(=S)[nH]c3c2)CC1,x,x,x,-4,0.7,0.3,-3,-1,26,1
N#Cc1cc(O)c(-n2nnc3ccccc32)cc1C#N,9,1,-0.8,17,0.2,0.2,11,x,-14,-8
CCN(CC)S(=O)(=O)c1ccc(NN=C2CCN(C(C)C)CC2)c([N+](=O)[O-])c1,5,2,-1.4,-4,-0.5,-0.5,6,-3,27,-1
CCC(=O)N1CCc2cc(Br)cc(S(=O)(=O)NCCN3CCCCC3C)c21 (centres undefined),x,x,x,-8,0.2,-0.3,-2,2,-6,-7
COc1cccc(COC(=O)c2ccc3c(=O)n4c(nc3c2)CCC4)c1OC,2,4,0.0,-5,-0.3,2.9,-6,1,-5,19
CC(=O)Nc1ccc(S(=O)(=O)N2CCCC2)cc1,-4,-1,-4.7,-2,0.1,7.5,-1,-8,-1,-11
O=C(Nc1cccc(-c2cn3ccccc3n2)c1)c1cccc(Cl)c1,x,x,x,u,-2.0,-2.9,4,58,13,0
COc1ccc(C(=O)NCC(c2ccccc2)N2CCCC2)cc1S(=O)(=O)N1CCOCC1 (centres undefined),4,10,-1.2,x,0.5,2.4,2,-1,x,-3
Cc1cc(OCCCC(=O)N2CCCCC2)cc(C)c1Cl,x,x,x,-31,0.6,-4.1,-8,4,8,-6
Cc1ccc(C(=O)NCCNS(=O)(=O)c2ccccc2[N+](=O)[O-])cc1,4,10,1.3,13,0.6,2.3,-5,-3,-7,-15
O=c1oc2cc(O)ccc2cc1S(=O)(=O)c1ccccc1,-34,-41,-5.7,2,-3.9,4.9,4,-9,0,-11
CC(NC(=O)c1ccco1)C(=O)OC(C)C(=O)NCc1ccccc1 (centres undefined),19,9,-1.8,-4,0.4,x,-4,1,-11,x
O=C(N/N=C/c1ccsc1)c1ccc2ccccc2n1,5,26,-2.0,-4,1.4,-0.9,3,-2,-20,-9
CCC1=C(OC(=O)N(CC)CC)N2C(=O)OC(=NCCOC)[C@]2(Cc2ccccc2)[C@H]2C1=CC[C@H]1C(=O)N(CC)C(=O)[C@H]12,3,-2,14,14,0.9,-2.7,0,-8,22,-56
COc1ccc(NC(=O)COC(=O)c2ccc(N3CCCC3=O)cc2)cc1OC,-49,-75,-18,-5,0.2,2.4,1,-1,1,-8
CCCc1cc(=O)[nH]c(SCC(=O)c2[nH]c(C)c(C(=O)OCC)c2C)n1,x,x,x,24,0.5,x,-10,-1,-8,x
Cc1cc(C(=O)OC(C)C(=O)Nc2cccc(S(=O)(=O)N3CCOCC3)c2)c(C)o1 (centres undefined),x,x,x,-2,0.3,-7.8,3,-3,2,-23
COC(=O)C1CN(S(=O)(=O)c2ccccc2)CCN1S(=O)(=O)c1ccccc1 (centres undefined),x,x,x,17,0.1,2.4,10,5,-2,-5
SMILES,rRNA inh HTS,rRNA inh HTS OD600,rRNA inh HTS RFP,Calb FLC,A1 inh,LANA-H2A inh,Beta2AR agonist,Beta apoptosis,T cruzi inh,ALR H2O2 inh
NC(=O)CC(NC(=O)Cc1cccc2ccccc12)c1ccc(NCCc2ccc(F)cc2)c([N+](=O)[O-])c1 (centres undefined),x,x,x,-4,2.6,-1.6,5,x,-8,-1
CCCc1c(C)nc2c(OC)cccc2c1SCC(=O)O,-9,0,-3.8,1,0.4,3.0,-34,0,-24,3
COC(=O)C1CCN(S(=O)(=O)c2c(C)n(C)c(=O)n(C)c2=O)CC1,6,15,2.2,-4,-0.3,2.0,8,-1,-12,2
CCOc1ccccc1/C=N/Nc1nc2ccccc2o1,5,13,0.4,-1,-0.5,-1.8,-4,3,1,x
CCOC(=O)C1CCN(C(=O)C(=O)c2cn(CC(=O)N3CCCCCC3)c3ccccc23)CC1,10,3,5.4,-15,-1.5,-4.5,-8,7,62*,0
Cc1nc2nc(N)nc(OCc3ccccc3)c2nc1C,10,8,1.0,5,0.1,-3.3,-10,-7,-12,2
O=C(NCCN1CCOCC1)c1ccc(CSCc2cccc(Cl)c2)o1,-6,-6,-5.8,-6,1.1,0.6,-7,-4,5,66
CCOC(=O)c1c(CN2CCOCC2)oc2ccc(OC)cc12,x,x,x,-3,-0.3,1.1,-6,1,-4,-3
COc1ccc(-n2c(N)c(-c3nc4ccccc4n3C)sc2=S)cc1,x,x,x,3,0.3,4.7,-1,-3,19,9
COc1cccc(C(=O)Nc2ccc(S(=O)(=O)NCc3ccco3)cc2)c1,x,x,x,-5,-1.3,2.1,-3,2,-10,2
Cc1c(/C=N\NC(=O)c2cccc(F)c2)cnn1C,7,11,0.0,0,-1.8,-1.4,3,2,-6,-4
O=C(Cc1ccccc1)CC1(O)C(=O)Nc2ccccc21 (centres undefined),x,x,x,9,0.0,-5.0,0,-1,1,-6
Cc1ccc(C23CC4CC(CC(C(=O)NC(C)C)(C4)C2)C3)cc1,2,9,-0.5,-17,0.2,-0.2,1,6,5,x
O=C(NC(=S)Nc1ccccc1O)c1ccc(Cl)cc1Cl,-54,-81,-20,111*,0.0,-8.7,3,x,-1,23
Cc1[nH]c(=O)[nH]c1C(=O)CCCCC(=O)OCC(=O)Nc1ccccn1,x,x,x,43,1.0,5.8,-4,0,-11,8
COCCNC(=O)/C(C#N)=C/C=C/c1ccccc1,6,7,2.8,8,0.2,-3.8,11,0,-19,-2
COc1ccc(C(=O)OCC(=O)NC2CC2)cc1S(=O)(=O)N(C)Cc1ccccc1,1,1,-2.4,-5,-0.4,-0.9,-7,-4,2,-1
COc1ccc(S(=O)(=O)N2CCCC2CNC(=O)C(=O)NCc2ccccc2)cc1 (centres undefined),0,4,1.5,8,0.0,-9.3,-13,4,11,-1
COc1ccc(-c2nc(SCC(=O)N3CCOCC3)n[nH]2)cc1,x,x,x,-1,0.0,-6.7,-7,x,2,-13
CC(=O)NC(=S)Nc1ccc(NC(=O)c2cccs2)cc1,x,x,x,6,-1.4,-1.3,-15,0,8,12
CCSc1nnc(NC(=O)c2cccnc2)s1,x,x,x,34,-5.8,0.4,2,2,1,47
O=c1c2nncn2c2cccnc2n1CCNc1ncc(C(F)(F)F)cc1Cl,14,14,1.0,1,0.9,0.6,-9,8,16,-4
CC(C)(C)NC(=S)N1CCC(C(=O)c2ccc(F)cc2)CC1,4,9,1.4,5,0.2,-0.1,2,-2,-1,-3
CCCOC(=O)Nc1ccc(S(=O)(=O)Nc2ncccn2)cc1,11,4,2.8,-15,-0.1,-6.5,-4,-5,-8,x
COc1ccc(NC(=O)c2cc3c(s2)CCC(C)C3)cc1S(=O)(=O)N1CCOCC1 (centres undefined),x,x,x,6,1.0,-3.6,13,-1,-1,51
SMILES,rRNA inh HTS,rRNA inh HTS OD600,rRNA inh HTS RFP,Calb FLC,A1 inh,LANA-H2A inh,Beta2AR agonist,Beta apoptosis,T cruzi inh,ALR H2O2 inh
COc1ccc2cc(C(=O)N3CCN(c4ccccc4F)CC3)[nH]c2c1,-11,-7,-1.2,-4,1.2,1.7,19,1,-1,6
O=C(NCCc1cnccn1)C1CCC(=O)N(Cc2ccc(Cl)cc2)C1 (centres undefined),3,13,-0.5,5,-0.8,-7.1,10,2,6,0
COc1ccc(-n2nc3c(c2NC(=O)c2ccc4c(c2)OCO4)CS(=O)(=O)C3)cc1,-1,2,-4.6,10,-0.8,1.4,6,-5,-12,-20
CN1C(=O)N(C)C2(c3ccccc3)Nn3c(s/c(=C/c4ccco4)c3=O)=NC12c1ccccc1 (centres undefined),x,x,x,15,-0.4,-6.6,-1,-6,x,-10
CCn1c(=O)n(CC(=O)Nc2cc(OC)c(OC)c(OC)c2)c(=O)c2ccccc21,x,x,x,7,0.4,-2.1,6,-1,-9,-7
COc1ccc(CN2CCN(c3ccc(F)cc3)CC2)c(OC)c1OC,x,x,x,11,0.1,-1.7,-10,0,-5,51
COc1cccc(N2C(=NC(=O)C3CCCCC3)SC3CS(=O)(=O)CC32)c1 (centres undefined),11,7,-1.4,10,0.1,3.7,-4,-3,-2,-4
O=C(O)c1cccc2c3c([nH]c12)CCCC3,-7,-5,1.1,11,1.2,14,1,0,3,87*
COC(=O)Nc1ccc(S(=O)(=O)n2cnc3ccccc32)cc1,x,x,x,u,0.5,-2.0,7,-1,-19,-5
COc1ccc(NC(=O)CCCN2C(=O)C3C4C=CC(C4)C3C2=O)c(OC)c1 (centres undefined),x,x,x,0,-0.2,-1.6,10,-2,-5,44
CC(=O)N(c1ccc(C)cc1)C1C=CS(=O)(=O)C1 (centres undefined),11,7,-4.1,4,0.8,0.6,-3,x,5,22
CCOC(=O)C1CCCN(Cc2c(C(=O)N3CCOCC3)nc3ccccn23)C1 (centres undefined),10,9,0.1,-2,0.8,-1.5,5,-10,-3,0
O=C(Oc1ccc2c(-c3ccccc3)cc(=O)oc2c1)c1cccs1,x,x,x,6,-0.3,12,-3,7,-17,-10
Cc1cc(=O)n2[nH]c(N3C(=O)CCC3=O)nc2n1,x,x,x,-5,0.3,-2.0,1,6,1,0
c1ccc(COC2CCCN(Cc3nc(-c4cnccn4)no3)C2)nc1 (centres undefined),11,-5,-1.2,u,0.8,-1.1,-2,-6,-16,1

# Whole records, looked up by structure. Values in the order: rRNA inh HTS	rRNA inh HTS OD600	rRNA inh HTS RFP	Calb FLC	A1 inh	LANA-H2A inh	Beta2AR agonist	Beta apoptosis	T cruzi inh	ALR H2O2 inh
# COC(=O)Nc1ccc(S(=O)(=O)n2cnc3ccccc32)cc1 is listed with x	x	x	u	0.5	-2.0	7	-1	-19	-5
# O=C(Oc1ccc2c(-c3ccccc3)cc(=O)oc2c1)c1cccs1 is listed with x	x	x	6	-0.3	12	-3	7	-17	-10
# CCOC(=O)C1CCCN(Cc2c(C(=O)N3CCOCC3)nc3ccccn23)C1 (centres undefined) is listed with 10	9	0.1	-2	0.8	-1.5	5	-10	-3	0
# COc1ccc(CN2CCN(c3ccc(F)cc3)CC2)c(OC)c1OC is listed with x	x	x	11	0.1	-1.7	-10	0	-5	51

# The list is partial (hit frequency here may not be typical).
